HNF4A DNA FP: change in binding of human HNF4 alpha to DNA; HNF4a-FITC DNA binding, fluorescence polarization, 1 h; activity change, % at 10 µM; hit rate 0.3% among 360,000; AID 1224865; in the data active means activity change above about 30%, passing the limit was not always enough;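 further: controls were the assay level and a saturating level of protein; the project sought stronger binding though the title names inhibitors; some compounds called inactive have numbers as strong as hits; positive values seem to mean higher polarization but the record does not say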
Target sequence (P41235 whole entry, looked up): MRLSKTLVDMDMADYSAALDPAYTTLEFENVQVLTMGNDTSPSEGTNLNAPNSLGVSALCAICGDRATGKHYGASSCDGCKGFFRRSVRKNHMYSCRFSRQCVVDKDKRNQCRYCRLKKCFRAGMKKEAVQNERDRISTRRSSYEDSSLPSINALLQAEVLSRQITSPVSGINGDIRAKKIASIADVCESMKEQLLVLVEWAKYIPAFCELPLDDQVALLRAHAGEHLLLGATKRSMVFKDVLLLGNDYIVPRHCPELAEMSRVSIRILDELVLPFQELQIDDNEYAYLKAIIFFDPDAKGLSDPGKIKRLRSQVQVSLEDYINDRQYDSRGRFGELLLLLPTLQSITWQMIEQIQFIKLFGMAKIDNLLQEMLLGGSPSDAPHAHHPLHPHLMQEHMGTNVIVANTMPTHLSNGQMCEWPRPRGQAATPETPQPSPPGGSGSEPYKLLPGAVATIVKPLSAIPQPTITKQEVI
FGF22 binding: shifts melting point of recombinant human FGF22; calls only at 9.99 µM; Q9HCT0; AID 651658; hit rate 1.5% among 340,000; recombinant FGF22 thermal shift, SYPRO orange fluorescence; percent of sucrose octasulfate shift, DMSO zero;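 active means melting point raised past a set limit in the mean and every replicate; inconclusive means no clear call; three in four hits are not shown here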
Target sequence (Q9HCT0 whole entry, looked up): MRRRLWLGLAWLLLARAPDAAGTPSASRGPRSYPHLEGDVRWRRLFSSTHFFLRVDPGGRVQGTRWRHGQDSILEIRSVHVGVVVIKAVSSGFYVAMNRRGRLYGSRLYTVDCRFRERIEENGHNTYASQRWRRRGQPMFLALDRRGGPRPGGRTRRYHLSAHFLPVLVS
ALR H2O2 inh: human ALR oxidase inhibition via reduced H2O2; inhibition, % (test concentration not listed); purified ALR, DTT oxidation, H2O2 HRP-luminol luminescence; hit rate 3.8% among 290,000; AID 485317; P55789;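 active means mean and each replicate at 75% or more; inconclusive means only one of the two met; inactive means neither met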;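 further: stock transfer was 7.5 nL into about 7.5 µL; 0% = neutral wells and 100% = wells with inactivated enzyme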
Target sequence (P55789 whole entry, looked up): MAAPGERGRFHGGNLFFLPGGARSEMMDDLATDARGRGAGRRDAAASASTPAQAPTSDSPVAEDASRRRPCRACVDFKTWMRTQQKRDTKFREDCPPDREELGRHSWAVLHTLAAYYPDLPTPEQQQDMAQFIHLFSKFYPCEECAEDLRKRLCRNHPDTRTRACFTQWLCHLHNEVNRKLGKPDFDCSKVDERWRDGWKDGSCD
Vif TR-FRET: HIV-1 Vif–A3G interaction blockers – biochemical, TR-FRET, GST-Vif 1-94, biotin-A3G peptide, dose response retest, primary screen (AID 1117319); TR-FRET GST-Vif / biotin-A3G peptide binding; higher % means a stronger effect; test concentration not given here; strong numbers were not always called active; inhibition, %, or IC50 in µM where a hit was titrated; hit rate 0.57% among 260,000;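 active means above the screen mean plus three standard deviations and confirmed in dose response; inconclusive means results disagree or hit not tested in dose response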;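 further: Vif residues 1-94 fused to GST binding biotinylated APOBEC3G peptide 110-148; 0% = full assay without inhibitor and 100% = GST in place of GST-Vif; retest series ran down from 100 µM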
AF4-AF9 inh: blocks AF4 peptide binding to human AF9 | P42568 | AlphaScreen, biotin-AF4 peptide binding to FLAG-AF9 | inhibition, % at 10 µM | hit rate 0.47% among 350,000 | AID 651704;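 active means every replicate reaching a set inhibition limit, whatever the replicate mean, cut at about 25% in these data; inconclusive means mean inhibition reaches that limit but some replicates miss it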;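 further: 0% = plate neutral control median and 100% = total signal loss; the record names both 10 and 1 µM as test concentration; the first replicate is given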
E coli growth: inhibitors of Escherichia coli growth; OD600 absorbance (no concentration beside the values); OD600, 23 h; active compounds read low; hit rate 0.21% among 330,000;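 active means OD600 absorbance below the run mean of sample wells minus 3.6 SD, in any replicate, cut at about 0.56 in these data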;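 further: stock transfer was 300 nL into about 60 µL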
Ecoli rRNA inh: selective bacterial rRNA inhibition in E. coli | hit rate 1.6% among 350,000 | GFP signal change (wild-type ribosome), % (test concentration not listed) | E. coli WT GFP vs humanized-ribosome RFP mutants, fluorescence, 24 h; active compounds read low; DMSO median 0, no signal -100 | AID 720706;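 active means significant combined selectivity score with lowered wild-type GFP, culture density cut under 30%, mutant RFP and density less affected; inactive means any of these conditions unmet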; further: one replicate is shown; some compounds called inactive have numbers as strong as hits
Ecoli rRNA inh OD600: also measured in Ecoli rRNA inh; calls as there; OD600 change, %; measured here: OD600 growth;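 optical density of the mix in the first replicate; 0 = DMSO median and -100 = no signal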
Ecoli rRNA inh RFP: also measured in Ecoli rRNA inh; calls as there; RFP signal change, %; measured here: RFP humanized mutant strains;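 first replicate; 0 = DMSO median and -100 = no signal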
An asterisk follows results filed as active; i = inactive; ? = inconclusive; . = not tested or not shown; & = joins results of further samples. An excerpt, so the mix of outcomes need not match the whole.

no.	Compound	HNF4A DNA FP	FGF22 binding	ALR H2O2 inh	Vif TR-FRET	AF4-AF9 inh	E coli growth	Ecoli rRNA inh	Ecoli rRNA inh OD600	Ecoli rRNA inh RFP
1	c1ccc2c(c1)OCCOCCOCCOCCOCCOc1ccccc1OCCOCCOCCO2	-16.5	i	-2.9	-3.1%	0.0	0.637	5.7	-4.8	-3.8
2	CCCCCC(O)(c1ccccc1)C(CN1CCOCC1)c1ccccc1 (stereo not drawn)	-3.4	i	-6.8	-2.2%	-2.6	0.668	-38.5	-59.8	3.6
3	CCCNC(=O)Nc1ccc2c(c1)OC[C@@H](C)N(CC1CCCC1)C[C@H](C)[C@H](OC)CN(C)C2=O	.	i	.	.	0.4	.	3.2	3.4	0.7
4	CCCCOc1ccc2c(C)cc(=O)oc2c1OCCCC	-1.3	.	-0.3	1.4%	.	0.697	.	.	.
5	CCc1ncc(C(=O)c2ccc(OC)cc2)n1C	-3.1	i	-1.1	22.1%	-34.6	0.64	2.9	-1.3	-3.4
6	Cc1cccc(NS(=O)(=O)c2ccc3c(c2)NC(=O)CC(=O)N3)c1	1.1	i	25.4	-8.4%	-1.9	0.686	19.9	19.2	2.6
7	Cc1ccc(S(=O)(=O)N2CCN(Cc3cccc(F)c3)CC2)cc1	-1.8	i	-11.9	.	-7.1	0.632	-27.7*	-15.3*	0.3*
8	CCn1c(SCC(=O)Nc2sc(C)c(C)c2C#N)nnc1C1CC1	-2.9	i	28.6	15.6%	-6.9	0.712	-16.0	-7.3	0.7
9	Nc1nccnc1C(=O)N/N=C/c1ccco1	7.5	i	-9.7	30.4%	4.9	.	4.7	0.4	-4.6
10	Cc1nnc(SC(C)C(=O)NC2CCCCC2)s1 (stereo not drawn)	0.2	i	.	-3.7%	-1.2	0.612	5.1	5.6	-2.8
11	O=[N+]([O-])c1ccc(S(=O)(=O)NCC(c2cccnc2)N2CCc3ccccc3C2)cc1 (stereo not drawn)	-2.0	i	-1.2	5.2%	-22.3	0.618	-14.6	-8.7	-3.0
12	Cc1nc2c(=O)n(-c3ccc(F)cc3F)nc(C)c2s1	-5.4	i	-5.2	2.4%	-2.6	0.696	9.8	10.7	0.8
13	COc1ccc(NC(=O)Cn2nc([N+](=O)[O-])c(Cl)c2C)cc1OC	-4.2	i	-4.4	1.4%	1.0	0.666	7.4	4.8	0.4
14	CCOc1cc(/C=C2\SC(=N)N(c3nccs3)C2=O)ccc1OCCN1CCOCC1	0.1	i	.	12.5%	7.3	0.662	-16.0	-3.8	1.5
15	Cc1ccccc1OCC(=O)Nc1ccc2oc(=O)ccc2c1	4.4	i	12.3	-21.6%	-0.6	0.742	-1.1	5.9	-3.1
16	COc1ccc(-c2cc(N)n(S(=O)(=O)c3ccc(C)cc3)n2)c(OC)c1	0.4	i	98.7*	3.5%	2.2	0.727	2.4	7.5	3.7
17	CC(C)C(=O)N(c1ccc(F)cc1)C1C=CS(=O)(=O)C1 (stereo not drawn)	3.2	i	-6.4	3.8%	-60.3	0.652	17.9	11.7	-0.6
18	O=S(=O)(Nc1ccncc1)c1ccc(Cl)cc1	-3.1	.	-7.8	24.2%	.	0.714	.	.	.
19	C=CCn1c(SCC(=O)NCc2ccc3c(c2)OCO3)nc2scc(-c3ccc(F)cc3)c2c1=O	-2.0	.	-2.5	-2.1%	.	0.716	.	.	.
20	Cc1ccc(N(CC(=O)NC(C)C)C(=O)CCC(=O)Nc2ccccn2)cc1	-1.6	i	.	.	1.4	0.649	2.9	7.8	-1.9
21	CCCCS(=O)(=O)Nc1ccc(Cc2ccncc2)cc1	1.4	.	-4.7	-2.1%	.	0.663	.	.	.
22	CCC(=O)N(C)C[C@H]1Oc2cc(C#C[C@@H](C)O)ccc2S(=O)(=O)N([C@@H](C)CO)C[C@@H]1C	.	i	.	.	-0.8	.	1.9	3.5	-2.7
23	O=c1[nH]cnc2c1C1(CCCC1)Cc1ccccc1-2	-0.4	.	-3.9	-5.8%	.	0.75	.	.	.
24	COc1ccccc1N(CC(=O)NCc1ccc2c(c1)OCO2)C(=O)CCC(=O)Nc1nccs1	-1.1	i	1.0	.	-2.2	0.659	7.0	7.5	-0.3
25	CC1CCCCC1NC(=O)COCc1cc(-c2cccs2)on1 (stereo not drawn)	-1.1	i	3.2	-19.6%	-7.2	0.702	-19.1	-20.7	1.3
26	COc1ccc(C#Cc2ccc([C@@H]3[C@H]4CN(C(=O)Nc5ccc(F)cc5)CCCCN4[C@H]3CO)cc2)cc1	.	i	.	.	-9.4	.	4.3	15.6	-2.5
27	Cc1nc(-c2ccccc2)sc1C1(C)CC(c2ccc([N+](=O)[O-])cc2)=NO1 (stereo not drawn)	-2.3	i	-5.9	-5.6%	5.7	0.651	1.7	1.3	1.2
28	CC(=O)Nc1nc2ccccc2n1CCN(C)C	2.8	.	.	-6.6%	.	0.748	.	.	.
29	COC(=O)CN(c1ccc(OCc2ccccc2)cc1)S(C)(=O)=O	-4.3	i	.	-1.0%	-2.1	0.697	-12.1	-14.0	-1.2
30	Cc1ccc(/C=C2\SC(=S)N(Cc3ccccc3)C2=O)o1	25.8	.	-7.2	29.5%	.	0.722	.	.	.
31	CCOc1ncccc1C(=O)N(C)CC1COc2ccccc2O1 (stereo not drawn)	-0.8	.	5.4	6.0%	.	0.68	.	.	.
32	C[C@H]1CN([C@@H](C)CO)C(=O)c2cccc(NS(=O)(=O)c3ccc(F)cc3)c2O[C@H]1CN(C)C	.	i	.	.	-3.5	.	2.1	6.9	-3.2
33	COc1cccc(-n2nnc3c(=O)n(Cc4ccc(Cl)cc4)cnc32)c1	3.2	.	-1.2	1.6%	.	0.766	.	.	.
34	O=C(Nc1ccccc1)c1cn2ccccc2n1	-0.1	i	3.1	.	-0.7	0.655	14.0	1.1	12.8
35	O=C(COC(=O)CC12CC3CC(CC(C3)C1)C2)Nc1cccnc1Cl	-1.1	i	.	1.8%	-3.9	0.714	-24.2*	-19.2*	-5.5*
36	CC(C)CNC(=O)COc1ncnc2sccc12	-1.3	i	9.5	4.1%	-1.7	0.688	19.2	11.4	1.1
37	C[C@@H]1CN([C@H](C)CO)C(=O)CCCn2nncc2CO[C@@H]1CN(C)C(=O)c1ccncc1	-5.0	i	.	.	-0.7&-6.5	.	-1.0&2.1	7.8&0.1	8.0&-1.2
38	COC(=O)c1cccc(CN2C(=O)C(C)Sc3ccc(C(C)=O)cc32)c1 (stereo not drawn)	4.7	i	.	.	-0.8	.	-9.2	-9.4	0.5
39	O=C(NCc1ccon1)c1ccc(OC2CCN(CCc3ccccc3)CC2)cc1	0.7	i	-5.0	17.6%	2.0	0.665	10.1	13.8	-1.7
40	C=CCn1c(SCc2c(F)c(F)c(F)c(F)c2F)nc(O)cc1=O	2.8	.	98.8*	?	.	0.645	.	.	.
41	O=C(C[C@H]1C[C@@H]2c3cc(NC(=O)C4CCOCC4)ccc3O[C@@H]2[C@H](CO)O1)NCc1ccc2c(c1)OCO2	.	i	.	.	-0.4	.	1.7	-1.1	-2.3
42	COc1ccc(N2C(=O)CSCC2=O)cc1OC	-2.0	.	-4.4	.	-1.7	0.66	11.2	7.9	1.3
43	Cn1cc(CN2CCCC(C(=O)c3nccn3C)C2)c(-c2cccc(Cl)c2)n1 (stereo not drawn)	5.1	i	3.1	0.9%	2.2	0.664	7.5	3.0	4.5
44	C[C@H](CO)N1C[C@H](C)[C@H](CN(C)C(=O)Nc2cccc3ccccc23)Oc2c(NS(=O)(=O)c3ccc(F)cc3)cccc2C1=O	.	i	.	.	5.2	.	-7.3	-13.8	2.9
45	COc1ccc(C)cc1NC(=O)COC(=O)c1ccc2c(c1)OCCO2	-0.3	i	-3.3	.	-5.1	0.685	.	.	.
46	COc1ccc(C2CC(c3ccccc3)=NN2C(=O)COC(=O)c2cccc(N)c2)cc1 (stereo not drawn)	3.0	i	-0.9	.	3.6	0.72	-6.1	-2.6	1.3
47	COc1cccc(S(=O)(=O)Nc2ccc3c(c2)[C@@H]2C[C@@H](CC(=O)N(C)C)O[C@H](CO)[C@@H]2O3)c1	.	i	.	.	0.7	.	-1.2	-1.2	-4.8
48	COc1ccc(C2(C(=O)NCCCN3CCOCC3)CCOCC2)cc1	3.1	.	-0.2	7.0%	.	0.706	.	.	.
49	NC(=O)c1cccc(S(=O)(=O)N2CCCCC2)c1	-4.9	i	-2.0	15.5%	-0.5	0.738	13.8	8.2	-0.9
50	C[C@H](CO)N1C[C@H](C)[C@H](CN(C)Cc2ccc(C(=O)O)cc2)Oc2c(NC(=O)c3nc4ccccc4s3)cccc2C1=O	.	i	.	.	-1.9	.	-6.3	-6.9	3.5
51	Cc1c(C(=O)NC(C)C)oc2c1-c1[nH]ncc1CC2	3.5	.	-47.5	5.5%	.	.	.	.	.
52	COCCNC(=O)COc1ccc(N(C)S(=O)(=O)c2ccc3ccccc3c2)cc1	4.0	i	.	2.2%	-2.5	0.675	-2.1	-7.3	2.7
53	C[C@H]1CN([C@@H](C)CO)C(=O)c2cc(NC(=O)Cc3ccccc3)ccc2O[C@@H]1CN(C)C(=O)Nc1cccc2ccccc12	.	i	.	.	-8.0	.	-2.7	-6.9	0.1
54	CC1CC(C(F)(F)F)n2nc(C(=O)O)cc2N1 (stereo not drawn)	1.4	.	-17.6	9.7%	.	0.707	9.1	15.4	-1.6
55	COc1cc(C2c3[nH]c4ccccc4c3C[C@H]3C(=O)N(C4CC4)CC(=O)N23)ccc1OC(C)C (stereo partly drawn)	-0.5	i	44.2	-5.2%	12.2	0.644	3.9	-14.1	2.1
56	O=C(C[C@@H]1CC[C@H]2[C@@H](COC[C@@H](O)CN2Cc2ccccc2F)O1)N[C@@H]1CCN(Cc2ccccc2)C1	.	i	.	.	1.1	.	-2.6	1.1	-1.6
57	COc1ccc(/C=C2\SC(=S)N(CCC(=O)Nc3cccc(O)c3)C2=O)cc1OC	3.3	i	3.2	-6.4%	0.0	0.672	9.4	17.5	1.2
58	COc1ccc(NC(=O)Oc2ccccc2)cc1Cl	2.0	i	-22.9	.	-7.2	0.607	3.2	-13.8	-4.9
59	CCn1c(=O)cc(OCC(=O)Nc2ccccc2C#N)c2ccccc21	2.6	i	-5.3	-30.1%	-1.6	0.765	-14.8	-21.1	-5.0
60	COc1cccc(-c2csc(NC(=O)Oc3ccccc3)n2)c1	-2.6	i	37.3	-0.2%	5.9	0.655	2.0	7.5	0.8

Next section
no.	Compound	HNF4A DNA FP	FGF22 binding	ALR H2O2 inh	Vif TR-FRET	AF4-AF9 inh	E coli growth	Ecoli rRNA inh	Ecoli rRNA inh OD600	Ecoli rRNA inh RFP
61	CCNC(=O)C[C@@H]1CC[C@H]2[C@@H](COc3ccc(NC(=O)c4ccc(F)c(F)c4)cc3C(=O)N2C)O1	.	i	.	.	0.2	.	2.1	2.6	2.3
62	O=C(CCc1c[nH]c2ccccc12)N1CCN(S(=O)(=O)c2ccc([N+](=O)[O-])cc2)CC1	-0.2	i	.	7.5%	5.4	.	-1.4	2.8	-0.7
63	CN(C)C(=O)C[C@H]1C=C[C@@H](NC(=O)Nc2cccc(F)c2)[C@H](CO)O1	.	i	.	.	-13.2	.	1.2	-4.5	0.1
64	CCCCc1ccc(NC(=O)C(=O)NCCN2CCN(C(=O)c3ccc([N+](=O)[O-])cc3)CC2)cc1	-0.2	i	-3.3	.	-0.3	0.728	1.6	9.5	-1.4
